Assay outcomes (PubChem)
MARV entry inh = blocks Marburg virus binding to or entry into cells; Marburg virus pseudotyped entry inhibition, cell reporter; control for the full effect not named in the record; about a third of the inactives were read at about 46 µM; Potency, µM (top dose mostly 37.8 µM), for the others: top-dose activity change, negative = inhibition, usual class: inhibitors; 1.8% of 300,000 active; AID 540276; active = well fitted inhibition curve with a large enough effect; inconclusive = small, poorly fitted or top-dose-only effect, or effect the other way; inactive = flat fitted curve, though single readings scatter; tested in HEK293 cells; about a fifth of its hits are not listed in these tables; further: on the % scale 0 is the no-effect control and ±100 the full control effect; luciferase read-out
SARS PLpro yeast = blocks SARS-CoV papain-like protease in a yeast assay; S. cerevisiae expressing SARS-CoV PLpro, growth rescue; control for the full effect not named in the record; 0.19% of 330,000 active; AID 485353; Potency, µM (series often up to 32.9 µM), for inactives: at the highest dose activity, positive = growth rescue; further: 0% is about no effect; nearly all actives have a fitted effect of over 55% in size; growth read by luminescence after 48 h
Cruzain inh noDet = inhibitors of Trypanosoma cruzi cruzain without detergent. P25779. purified cruzain, Z-FR-AMC fluorescence, no detergent. Potency, µM, for the others: max response, negative = inhibition, usual class: inhibitors. 2.3% of 200,000 active; active means well fitted curve in the direction sought with a large enough effect; inconclusive means small, poorly fitted or top-dose-only effect, or another doubt; inactive means no such curve, though single readings can be large; an effect the other way counts as inactive or inconclusive;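 further: plate controls were enzyme without inhibitor for no effect and buffer without enzyme for full effect; nearly all actives have a fitted effect of over 40% in size; top concentration of the series not given in the record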
Target sequence (P25779 123-467 limits assumed): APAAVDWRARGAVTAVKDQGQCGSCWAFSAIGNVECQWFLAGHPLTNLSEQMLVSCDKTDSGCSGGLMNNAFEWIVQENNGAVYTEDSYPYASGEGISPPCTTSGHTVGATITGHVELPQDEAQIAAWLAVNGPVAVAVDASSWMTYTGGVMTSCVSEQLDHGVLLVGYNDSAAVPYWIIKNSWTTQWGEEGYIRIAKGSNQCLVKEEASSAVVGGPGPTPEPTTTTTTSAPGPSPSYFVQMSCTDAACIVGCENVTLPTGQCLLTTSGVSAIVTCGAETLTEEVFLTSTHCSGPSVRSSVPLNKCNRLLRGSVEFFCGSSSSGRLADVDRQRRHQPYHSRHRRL
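Detergent-free condition (0.00005% Triton X-100) in acetate buffer pH 5.5 with DTT. 1.5 nM enzyme and compound were pre-mixed 15 min, then 2 uM Z-FR-AMC substrate added; reaction progress from fluorescence change between first and third reads (60 s).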
Cruzain Triton = cruzain (T. cruzi) inhibition with detergent; purified cruzain, Z-FR-AMC fluorescence, 0.01% Triton; Potency, µM, for inactives: max response, negative = inhibition, actives largely listed as inhibitors; AID 1478; P25779; 0.43% of 200,000 active; active means well fitted curve in the direction sought with a large enough effect; inconclusive means small, poorly fitted or top-dose-only effect, or another doubt; inactive means no such curve, though single readings can be large; an effect the other way counts as inactive or inconclusive;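 further: plate controls were neutral wells for no effect and buffer without enzyme for full effect; nearly all actives have a fitted effect of over 40% in size; top concentration of the series not given in the record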
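Read-out: AMC fluorescence (360 nm excitation, 450 nm emission), four reads over 2 min, first-to-third difference used. Conditions: cruzain 1.5 nM, Z-FR-AMC 2 uM, pH 5.5 acetate, 5 mM DTT, 0.01% Triton X-100.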
StopGo reporter = lowers the luciferase signal of an FMDV 2A StopGo reporter | human cells with a luciferase reporter of 2A StopGo recoding; control for the full effect not named in the record | Potency, µM (top dose mostly 57.9 µM), for the others: at the highest dose signal change, negative = less light | 1.2% of 410,000 active | AID 1159524; active = well fitted falling curve with a large enough effect; inconclusive = small, poorly fitted or top-dose-only effect; inactive = no such curve, though single readings can be large or run the other way; tested in HEK293T cells; further: on the % scale 0 is the no-effect control and ±100 the full control effect; nearly all actives have a fitted effect of over 45% in size; luciferase light after 4 h
NS1 inh = blocks influenza NS1 protein function; S. cerevisiae slowed by influenza A NS1, growth recovery by OD600; 0.4% of 270,000 active; Potency, µM (doses to about 46.1 µM), without a hit: top-dose activity, positive = more growth; further: actives are rising curves; nearly all actives have a fitted effect of over 50% in size
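Recovery from NS1-induced slow growth read by OD600 in budding yeast switched to galactose assay medium (pH 6.0, -URA) at 1:100 dilution. Compound 23 nl per well; the matching strain lacking NS1 serves as control.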
Lassa entry inh = Lassa virus entry inhibition; Lassa virus pseudotype entry inhibition, cell reporter; control for the full effect not named in the record; Potency, µM (highest dose often 37.9 µM), for the others: at the top dose activity change, negative = inhibition, most hits filed as inhibitors; 1.2% of 300,000 active; AID 540256; active means well fitted inhibition curve with a large enough effect; inconclusive means small, poorly fitted or top-dose-only effect, or effect the other way; inactive means flat fitted curve, though single readings scatter; tested in HEK293 cells; further: on the % scale 0 is the no-effect control and ±100 the full control effect; nearly all actives have a fitted effect of over 50% in size; luciferase read-out
RE007 growth inh = less growth of the S. pombe RE007 Vpr strain. S. pombe RE007 Vpr strain, BacTiter-Glo ATP luminescence, 24 h; control for the full effect not named in the record. Potency, µM (highest dose often 92.2 µM), inactives show at the highest dose activity change, negative = less growth. 0.21% of 360,000 active. AID 651644; active = well fitted falling curve with a large enough effect; inconclusive = small, poorly fitted or top-dose-only effect; inactive = no such curve, though single readings can be large or run the other way;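 further: on the % scale 0 is the no-effect control and ±100 the full control effect; nearly all actives have a fitted effect of over 50% in size; the assay follows cell death caused by Vpr and the record does not say whether a fall means rescue or toxicity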
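Fission yeast RE007 carrying one integrated HIV-1 vpr copy, seeded at OD 0.01 in PMG+AL medium with 23 nL pinned compound. Grown 24 h at 30 degrees; viability read by BacTiter-Glo luminescence after 5 min.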
* marks the source's active call; other numbers are inactive results; & = joins results of further samples; [ ] = remark or other dose. Unless noted, the call rests on the fitted dose curve; in most records, active means well fitted rising curve with a large enough effect; inconclusive means small, poorly fitted or top-dose-only effect; inactive means no such curve, though single readings can be large or run the other way. Potency means the concentration at half of the fitted maximal effect.

What do the screens show for `COc1ccc(/C=N/Nc2nnc(C)n2N)cc1OC`?
MARV entry inh: inconclusive; SARS PLpro yeast: -5%; StopGo reporter: 5%; Lassa entry inh: inconclusive; RE007 growth inh: -22%

What do the screens show for `Cc1cc(NC(=O)C2CCCN(S(=O)(=O)c3cnc[nH]3)C2)ccc1Br` (stereo not given)?
SARS PLpro yeast: 0%; Cruzain inh noDet: 3%; Cruzain Triton: -1.0%; StopGo reporter: inconclusive; NS1 inh: 0%; RE007 growth inh: -12%

What do the screens show for `CC1CCN(S(=O)(=O)c2ccc3c(c2)oc(=O)n3CC(=O)O)CC1`?
Cruzain inh noDet: 2%; Cruzain Triton: -0.3%; StopGo reporter: 0%; Lassa entry inh: 3%[46.1 µM]

How did CC(SC(C)C(=O)NN=Cc1ccc(F)cc1)C(=O)NN=Cc1ccc(F)cc1 (stereo not given) do in these assays?
MARV entry inh: -5%[46.1 µM]; StopGo reporter: -19%; Lassa entry inh: -9%[46.1 µM]; RE007 growth inh: 2%

Results for CCN(CC)CCOc1nnc(-c2ccc(C)cc2)c2ccccc12 ?
MARV entry inh: inconclusive; SARS PLpro yeast: -5%; Cruzain inh noDet: 0%; Cruzain Triton: -1.3%; StopGo reporter: inconclusive; NS1 inh: -13%; Lassa entry inh: -17%; RE007 growth inh: 2%

Results for Cc1cc(C)nc(NS(=O)(=O)c2ccc(Br)cc2)n1 ?
MARV entry inh: 7%; SARS PLpro yeast: 8%; Cruzain inh noDet: -4%; Cruzain Triton: -2.2%; StopGo reporter: 125%[activator]; NS1 inh: 6%; Lassa entry inh: 6%; RE007 growth inh: 0%

Results for CCN(CC)C(=O)C(C)OC(=O)c1ccc(O)cc1 (stereo not given) ?
MARV entry inh: 25%; SARS PLpro yeast: 10%; Cruzain inh noDet: 10%; Cruzain Triton: 2.8%; StopGo reporter: 8%; NS1 inh: inconclusive; Lassa entry inh: 11%; RE007 growth inh: -17%

How did Cc1ccc2[nH]cc(CCNC(=O)c3ccc4c(c3)OCO4)c2c1 do in these assays?
SARS PLpro yeast: 0%; StopGo reporter: 5%; NS1 inh: -20%; RE007 growth inh: 4%

Results for CCOCCCNC(=S)NC1CC2CCC(C1)N2Cc1ccccc1 (stereo not given) ?
MARV entry inh: -51%[46.1 µM]; SARS PLpro yeast: 0%; StopGo reporter: 3%; NS1 inh: -2%; Lassa entry inh: 3%; RE007 growth inh: 2%

What do the screens show for `Nc1cc(C(=O)O)ccc1N1CCCCC1`?
MARV entry inh: -1%; SARS PLpro yeast: -24%; Cruzain inh noDet: -13%; Cruzain Triton: 0.4%; StopGo reporter: 2%; NS1 inh: 10%; Lassa entry inh: 8%; RE007 growth inh: 5%

What do the screens show for `CC(=O)c1ccc(N2CCN(S(=O)(=O)c3cn(C)c(C)n3)CC2)cc1`?
MARV entry inh: -15%; SARS PLpro yeast: 1%; StopGo reporter: 7%; NS1 inh: 3%; Lassa entry inh: -10%; RE007 growth inh: 3%

How did CCOC(=O)c1c(C)[nH]c(C(=O)COC(=O)CSCC(=O)N(CC)CC)c1C do in these assays?
MARV entry inh: 23%; SARS PLpro yeast: -2%; Cruzain inh noDet: 25%; Cruzain Triton: -5.2%; StopGo reporter: 5%; NS1 inh: 1%; Lassa entry inh: 3%; RE007 growth inh: -5%

What do the screens show for `Cn1c(CCNC(=O)c2ccco2)nc2cc(NS(=O)(=O)c3ccccc3)ccc21`?
MARV entry inh: inconclusive; SARS PLpro yeast: -6%; Cruzain inh noDet: -1%; Cruzain Triton: 6.1%; StopGo reporter: inconclusive; NS1 inh: 6%; Lassa entry inh: 2%; RE007 growth inh: 7%

Results for O=[N+]([O-])c1cccc(NC(=S)NCc2ccncc2)c1 ?
MARV entry inh: 20%[46.1 µM]; SARS PLpro yeast: -1%; StopGo reporter: 18%; Lassa entry inh: 8%[46.1 µM]; RE007 growth inh: 1%

Results for CCOc1ccccc1N1CC(C(=O)Nc2c(C)n(C)n(-c3ccccc3)c2=O)CC1=O (stereo not given) ?
MARV entry inh: -13%[46.1 µM]; SARS PLpro yeast: -1%; StopGo reporter: 4%; Lassa entry inh: -7%[46.1 µM]; RE007 growth inh: -5%

Fetched by structure from the entries so far, two records:
What do the screens show for `Cc1cc(NC(=O)C2CCCN(S(=O)(=O)c3cnc[nH]3)C2)ccc1Br` (stereo not given)?
SARS PLpro yeast: 0%; Cruzain inh noDet: 3%; Cruzain Triton: -1.0%; StopGo reporter: inconclusive; NS1 inh: 0%; RE007 growth inh: -12%

Results for CCOc1ccccc1N1CC(C(=O)Nc2c(C)n(C)n(-c3ccccc3)c2=O)CC1=O (stereo not given) ?
MARV entry inh: -13%[46.1 µM]; SARS PLpro yeast: -1%; StopGo reporter: 4%; Lassa entry inh: -7%[46.1 µM]; RE007 growth inh: -5%

The results go on:
What do the screens show for `C=CCN=C(C)C1=C(O)C(C)OC1=O` (stereo not given)?
MARV entry inh: inconclusive; SARS PLpro yeast: -6%; Cruzain inh noDet: -5%; Cruzain Triton: -2.4%; StopGo reporter: -14%; NS1 inh: 2%; Lassa entry inh: 11%; RE007 growth inh: 22%

Results for O=C(N/N=C/c1ccc(Br)s1)c1cccs1 ?
MARV entry inh: 1%[46.1 µM]; SARS PLpro yeast: -2%; StopGo reporter: 13%; NS1 inh: -5%; Lassa entry inh: -20%[46.1 µM]; RE007 growth inh: -25%

How did CC1(C)CC(=O)c2c(-c3cccnc3)n[nH]c2C1 do in these assays?
MARV entry inh: inconclusive; Cruzain inh noDet: -6%; Cruzain Triton: 5.0%; StopGo reporter: 32%; NS1 inh: 0%; Lassa entry inh: 0%; RE007 growth inh: 6%

Results for CC(C)C(C(=O)NCC1CCCO1)N(Cc1ccco1)C(=O)CNS(=O)(=O)c1ccc(F)cc1 (stereo not given) ?
MARV entry inh: 2%&0%; SARS PLpro yeast: -1%; Cruzain inh noDet: 6%; Cruzain Triton: 2.1%; StopGo reporter: -16%; NS1 inh: -19%; Lassa entry inh: 10%; RE007 growth inh: -5%

What do the screens show for `COc1ccc(NS(=O)(=O)c2ccc(Oc3c(C#N)cccc3C#N)cc2)cc1`?
MARV entry inh: 2.8µM*; SARS PLpro yeast: 0%; StopGo reporter: inconclusive; NS1 inh: -7%; Lassa entry inh: inconclusive; RE007 growth inh: 5%

Results for Cc1ccc(-c2nn(CCC(=O)NCC3CCCO3)c(=O)c3ccccc23)cc1 (stereo not given) ?
MARV entry inh: inconclusive; SARS PLpro yeast: -2%; Cruzain inh noDet: 12%; Cruzain Triton: 4.6%; StopGo reporter: -11%; NS1 inh: 8%; Lassa entry inh: -15%; RE007 growth inh: -6%

How did O=C(Nc1ccccc1)c1ccc(S(=O)(=O)Nc2cccc(O)c2)cc1 do in these assays?
SARS PLpro yeast: 2%; StopGo reporter: -21%; NS1 inh: 0%; RE007 growth inh: -1%

Results for Cc1ccccc1C1NS(=O)(=O)N=C1N (stereo not given) ?
MARV entry inh: inconclusive; SARS PLpro yeast: -20%; Cruzain inh noDet: 1%; Cruzain Triton: 3.9%; StopGo reporter: -20%; NS1 inh: -3%; Lassa entry inh: -9%; RE007 growth inh: 23%

Results for Cc1nc(SCC(=O)Nc2nc3ccccc3s2)n[nH]1 ?
MARV entry inh: 5%[46.1 µM]; SARS PLpro yeast: -1%; StopGo reporter: 5%; NS1 inh: 6%; Lassa entry inh: -2%[46.1 µM]; RE007 growth inh: 7%

How did O=C(O)c1ccc(-n2cccc2/C=N\NC(=O)c2cc3cc(Br)ccc3o2)cc1 do in these assays?
MARV entry inh: -12%[46.1 µM]; SARS PLpro yeast: 3%; StopGo reporter: -12%; NS1 inh: 19%; Lassa entry inh: 4%; RE007 growth inh: -3%

What do the screens show for `CC(=O)NC(Cc1cc(C)ccc1C)C(=O)N1CCN(C(=O)Nc2ccc(C(C)=O)cc2)CC1` (stereo not given)?
MARV entry inh: -2%; SARS PLpro yeast: 8%; Cruzain inh noDet: inconclusive; Cruzain Triton: -12%; StopGo reporter: 19%; NS1 inh: inconclusive; Lassa entry inh: -5%; RE007 growth inh: 3%

How did O=C1C2C3C=CC(C4CC34)C2C(=O)N1/N=C/c1ccc(-c2ccc(Cl)cc2[N+](=O)[O-])o1 (stereo not given) do in these assays?
MARV entry inh: -6%; SARS PLpro yeast: 10%; Cruzain inh noDet: inconclusive; Cruzain Triton: -1.4%; StopGo reporter: -7%; NS1 inh: 3%; Lassa entry inh: inconclusive; RE007 growth inh: -10%

What do the screens show for `COc1ccc2cc([C@H](C)C(=O)N(C)Cc3ccccc3N3CCCC3)ccc2c1`?
MARV entry inh: inconclusive; SARS PLpro yeast: -8%; StopGo reporter: -22%; NS1 inh: -28%; Lassa entry inh: inconclusive; RE007 growth inh: -17%

Results for CCOC(=O)c1cnn2c(N)c(C#N)cnc12 ?
SARS PLpro yeast: 0%; StopGo reporter: 0%; NS1 inh: 0%; RE007 growth inh: 21%

How did COc1cc2c(cc1NC(=O)CN(C)Cc1cccc(OC)c1OC)oc1ccccc12 do in these assays?
MARV entry inh: inconclusive; SARS PLpro yeast: -49%; Cruzain inh noDet: -15%; Cruzain Triton: -1.5%; StopGo reporter: -1%; NS1 inh: -29%; Lassa entry inh: -16%; RE007 growth inh: 6%

How did CCOC(=O)C1CCN(S(=O)(=O)c2ccc(Cl)cc2OC)CC1 do in these assays?
MARV entry inh: 0%; SARS PLpro yeast: -1%; Cruzain inh noDet: -10%; Cruzain Triton: -2.1%; StopGo reporter: -25%; NS1 inh: -9%; Lassa entry inh: -4%; RE007 growth inh: -6%

Results for O=C(NCc1ccccc1Cl)C1CCN(C(=O)N2CCOc3ccccc32)CC1 ?
Cruzain inh noDet: 20%; Cruzain Triton: -3.4%; StopGo reporter: -6%; Lassa entry inh: -3%[46.1 µM]
